High-throughput results (PubChem)
FGF22 binding = binders of human FGF22 protein, primary screen, FGF22 synaptogenesis inhibitor project, biophysical, thermal shift, single point. recombinant FGF22 thermal shift, SYPRO orange fluorescence; percent of sucrose octasulfate shift, DMSO zero. calls only at 9.99 µM. 340,000 compounds, 1.5% hits. AID 651658, 2012;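 active = melting point raised past a set limit in the mean and every replicate; three in four hits are not shown here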
Target sequence (Q9HCT0 whole entry, looked up): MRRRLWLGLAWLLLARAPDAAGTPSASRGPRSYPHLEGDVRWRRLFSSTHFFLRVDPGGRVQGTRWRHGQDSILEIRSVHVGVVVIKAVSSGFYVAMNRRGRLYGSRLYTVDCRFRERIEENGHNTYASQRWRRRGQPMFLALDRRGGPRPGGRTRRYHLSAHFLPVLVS
rRNA inh HTS = reduced GFP signal of wild-type E. coli, primary screen, bacterial rRNA inhibitor project, GFP/RFP fluorescence, OD600, single point. E. coli WT GFP vs humanized-ribosome RFP mutants, 24 h; hits give low values; DMSO median 0, no signal -100. GFP signal change (wild-type ribosome), % (test concentration not listed). 350,000 compounds, 1.6% hits. AID 720706, 2013;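 active = significant combined selectivity score with lowered wild-type GFP, culture density cut under 30%, mutant RFP and density less affected; inactive = any of these conditions unmet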; also: one replicate is shown; some compounds called inactive have numbers as strong as hits
rRNA inh HTS OD600 = further read-out of rRNA inh HTS, marked with its call; OD600 change, %; measured here: OD600 growth;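 optical density of the mix in the first replicate; 0 = DMSO median and -100 = no signal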
rRNA inh HTS RFP = further read-out of rRNA inh HTS, marked with its call; RFP signal change, %; measured here: RFP humanized mutant strains;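 first replicate; 0 = DMSO median and -100 = no signal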
Starred values were filed as active, the others as inactive; i = inactive.

The first 3 entries as a preview:
FGF22 binding,rRNA inh HTS,rRNA inh HTS OD600,rRNA inh HTS RFP,Compound
i,-7.8,-7.5,-5.1,C[C@@H]1CN([C@H](C)CO)C(=O)c2cc(NC(=O)Nc3ccc(C(F)(F)F)cc3)ccc2O[C@@H](C)CCCCO[C@H]1CN(C)S(=O)(=O)c1ccc(Cl)cc1
i,-21.0,-49.5,15.4,CC(=O)C1=C(C)N(Cc2ccc(F)cc2)C(=S)NC1c1ccc(Cl)cc1 (centres undefined)
i,-6.6,-2.9,0.5,O=C(N[C@H](Cc1ccccc1)C(=O)NCC1CCCO1)[C@H]1O[C@@H](n2ccc(=O)[nH]c2=O)[C@H](O)[C@@H]1O (some centres undefined)

Results (from the top)
FGF22 binding,rRNA inh HTS,rRNA inh HTS OD600,rRNA inh HTS RFP,Compound
i,-7.8,-7.5,-5.1,C[C@@H]1CN([C@H](C)CO)C(=O)c2cc(NC(=O)Nc3ccc(C(F)(F)F)cc3)ccc2O[C@@H](C)CCCCO[C@H]1CN(C)S(=O)(=O)c1ccc(Cl)cc1
i,-21.0,-49.5,15.4,CC(=O)C1=C(C)N(Cc2ccc(F)cc2)C(=S)NC1c1ccc(Cl)cc1 (centres undefined)
i,-6.6,-2.9,0.5,O=C(N[C@H](Cc1ccccc1)C(=O)NCC1CCCO1)[C@H]1O[C@@H](n2ccc(=O)[nH]c2=O)[C@H](O)[C@@H]1O (some centres undefined)
i,-4.5,-12.2,4.4,COc1cccc(S(=O)(=O)N2C[C@H](O)COC[C@H]3O[C@H](CC(=O)N4CCN(c5ccccc5)CC4)CC[C@@H]32)c1
i,0.3,2.7,-2.0,CCNC(=O)Nc1ccc2c(c1)C(=O)N(C)[C@H]1CC[C@H](CC(=O)NCCN3CCCC3)O[C@H]1CO2
i,13.3,3.1,2.0,NC(=O)c1ncn([C@@H]2O[C@H](C(=O)N[C@H](Cc3c[nH]c4ccccc34)C(=O)N3CCN(CC(=O)N4CCCC4)CC3)[C@@H](O)[C@H]2O)n1
i,3.7,6.9,-0.8,Cc1noc(C)c1S(=O)(=O)Nc1ccc2c(c1)C(=O)N([C@@H](C)CO)C[C@H](C)[C@H](CN(C)C(=O)CCCN(C)C)OCCCC[C@@H](C)O2
i,30.1,15.3,1.5,COC(=O)N1C[C@H](OCc2cn(-c3cc(Cl)cc(Cl)c3)nn2)[C@H](OCc2cn(-c3cc(Cl)cc(Cl)c3)nn2)C[C@@H]1c1ccccc1Br
i,0.4,-3.8,6.7,COc1ccc(S(=O)(=O)Nc2ccc3c(c2)C(=O)N([C@H](C)CO)C[C@@H](C)[C@H](CN(C)Cc2ccc(Cl)c(Cl)c2)OCCCC[C@@H](C)O3)cc1
i,-2.2,4.5,-1.1,COc1ccc(S(=O)(=O)N(C)C[C@H]2OCCCC[C@H](C)Oc3ccc(NC(=O)Nc4ccccc4)cc3C(=O)N([C@H](C)CO)C[C@H]2C)cc1
i,1.5,-2.6,-0.2,COc1ccc(CN(C)C[C@H]2OCCCC[C@@H](C)Oc3ccc(NC(=O)Nc4ccccc4)cc3C(=O)N([C@H](C)CO)C[C@@H]2C)cc1
i,3.8,9.9,-1.7,C[C@H]1CN([C@@H](C)CO)C(=O)c2cccc(NS(=O)(=O)c3ccc(Cl)cc3)c2O[C@H]1CN(C)S(=O)(=O)c1ccc(F)cc1
i,-3.6,-4.6,1.7,CC(C)NC(=O)Nc1ccc2c(c1)C(=O)N(C)[C@@H]1CC[C@H](CC(=O)NC3CCCCC3)O[C@@H]1CO2
i,-16.4,-21.1,-0.1,C=CCN=C1NC(c2ccc(F)cc2)C(C(=O)OC)=C(C)N1Cc1ccccc1C(F)(F)F (centres undefined)
i,10.5,-0.1,7.9,CC(C)[C@H](NC(=O)c1ccc(Cl)cc1Cl)C(=O)N1CCC[C@H]1C(=O)NCc1ccccc1
i,6.2,7.0,-1.3,Nc1nc2cc3c(cc2cc1C(=O)NCc1cccnc1)OCO3
i,-1.6,-5.8,-0.7,COc1ccc(NC(=O)N(C)C[C@@H]2OCCCC[C@@H](C)Oc3ccc(NS(=O)(=O)c4ccc(OC)cc4)cc3C(=O)N([C@@H](C)CO)C[C@H]2C)cc1
i,0.9,6.1,1.3,CCCNC(=O)C[C@H]1C[C@@H]2c3cc(NC(=O)c4cccnc4)ccc3O[C@@H]2[C@@H](CO)O1
i,-22.2,-44.6,19.3,N#Cc1ccc(-c2ccc3c(c2)[C@@H]2[C@@H](CCN2C(=O)c2ccc(F)cc2)[C@@H](CO)N3)cc1
i,-1.6,14.4,-3.0,CCNC(=O)N1CCN(c2ccc(N3CCN(C(=O)NCC)[C@H](C)C3)c(C)c2)[C@@H](C)C1
i,-25.9,-46.5,26.8,Cc1ccccc1S(=O)(=O)N1CCCCN2[C@H](C1)[C@H](c1ccc(-c3cccnc3)cc1)[C@@H]2CO
i,-0.5,-25.5,19.5,COc1ccc(CN(C)C[C@H]2OCCCC[C@@H](C)Oc3ccc(NC(=O)Nc4ccccc4)cc3C(=O)N([C@H](C)CO)C[C@H]2C)cc1
i,-4.0,-25.1,17.7,C[C@H]1CCCCO[C@H](CN(C)C(=O)CCCN(C)C)[C@@H](C)CN([C@@H](C)CO)C(=O)c2cc(NC(=O)Nc3ccc(C(F)(F)F)cc3)ccc2O1
i,-4.7,9.7,-2.5,Cc1ccccc1-c1ccc([C@H]2[C@H]3CN(S(=O)(=O)c4ccc(F)cc4)CCCCN3[C@H]2CO)cc1
i,1.4,2.4,0.7,COCC(=O)N(C)C[C@H]1Oc2cc(C#CC(C)C)ccc2S(=O)(=O)N([C@@H](C)CO)C[C@@H]1C
i,2.6,-1.0,15.2,COC(=O)C1=C(C)N(Cc2ccccc2C(F)(F)F)C(=NCc2ccc3c(c2)OCO3)NC1c1ccc(C(F)(F)F)cc1 (centres undefined)
i,1.8,5.9,-1.4,COCC(=O)Nc1ccc2c(c1)C(=O)N(C)[C@H]1CC[C@@H](CC(=O)NCc3cccc(F)c3)O[C@@H]1CO2
i,1.9,-4.2,-2.8,C[C@@H]1CCCCO[C@H](CN(C)C(=O)CCCN(C)C)[C@@H](C)CN([C@H](C)CO)C(=O)c2cc(NC(=O)c3ccncc3)ccc2O1
i,1.9,2.1,0.4,CCCNC(=O)C[C@H]1CC[C@H]2[C@H](COc3ccc(NC(=O)Nc4ccccc4)cc3C(=O)N2C)O1
i,-57.5,-73.6,-14.4,N#Cc1cccc(-c2ccc([C@@H]3[C@H](CO)N4CCCCN(C(=O)Nc5ccc(F)cc5)C[C@@H]34)cc2)c1

Record cards, from the list above.
Record of COC(=O)C1=C(C)N(Cc2ccccc2C(F)(F)F)C(=NCc2ccc3c(c2)OCO3)NC1c1ccc(C(F)(F)F)cc1 (centres undefined) → FGF22 binding = i; rRNA inh HTS = 2.6; rRNA inh HTS OD600 = -1.0; rRNA inh HTS RFP = 15.2
Record of C[C@H]1CCCCO[C@H](CN(C)C(=O)CCCN(C)C)[C@@H](C)CN([C@@H](C)CO)C(=O)c2cc(NC(=O)Nc3ccc(C(F)(F)F)cc3)ccc2O1 → FGF22 binding = i; rRNA inh HTS = -4.0; rRNA inh HTS OD600 = -25.1; rRNA inh HTS RFP = 17.7

The list continues.
FGF22 binding,rRNA inh HTS,rRNA inh HTS OD600,rRNA inh HTS RFP,Compound
i,-3.4,4.7,4.0,COC(=O)[C@]12CCCCC=C1N(CCc1ccc(OC)c(OC)c1)C(=O)[C@H](CC(=O)NCCC(C)C)C2
i,-0.6,-5.5,-0.4,C[C@@H]1CCCCO[C@H](CN(C)C(=O)CCC(F)(F)F)[C@H](C)CN([C@@H](C)CO)C(=O)c2cc(NS(=O)(=O)c3cccs3)ccc2O1
i,14.8,-0.6,-0.5,CN1CC[C@@H]2CN(S(=O)(=O)c3ccccc3)[C@H](c3ccccc3Br)C[C@@H]21
i,-3.5,-1.1,-2.1,CCCNC(=O)C[C@@H]1CC[C@H]2[C@H](COc3ccc(NC(=O)c4cc(F)cc(F)c4)cc3C(=O)N2C)O1
i,-5.3,-0.1,-0.6,C[C@H](CO)N1C[C@H](C)[C@@H](CN(C)Cc2ccncc2)Oc2ccc(NS(=O)(=O)c3cccs3)cc2CC1=O
i,-2.5,-5.1,1.9,COc1ccc(NC(=O)Nc2ccc3c(c2)CC(=O)N([C@H](C)CO)C[C@H](C)[C@H](CN(C)C(=O)Nc2cccc4ccccc24)O3)cc1
i,-6.9,-31.7,8.2,CN1c2ccc(-c3cccc(C#N)c3)cc2[C@@H]2[C@@H](CCN2C(=O)NC2CCCCC2)[C@@H]1CO
i,5.0,6.4,2.9,CN(C)CC#Cc1ccc([C@@H]2[C@@H](CO)N3CCCCN(CC4CCOCC4)C[C@@H]23)cc1
i,3.4,11.4,-1.6,C[C@H](CO)N1C[C@H](C)[C@@H](CN(C)CC2CCOCC2)Oc2ncc(C3=CCCCC3)cc2C1=O
i,0.4,3.3,-1.2,CCCC(=O)Nc1ccc2c(c1)C(=O)N(C)[C@H]1CC[C@H](CC(=O)NCc3ccccc3F)O[C@@H]1CO2
i,1.5,-0.9,-3.4,C[C@H](CO)N1C[C@H](C)[C@@H](CN(C)C(=O)CCCN(C)C)OCCCC[C@H](C)Oc2ccc(NC(=O)c3ccncc3)cc2C1=O
i,-5.6,3.1,-5.2,COCC(=O)N(C)C[C@@H]1Oc2cc(C#CCC(C)C)ccc2S(=O)(=O)N([C@@H](C)CO)C[C@@H]1C
i,-57.8,-77.3,-16.9,O=C(Nc1ccc(F)cc1)N1C[C@@H]2N[C@H](C1)C2c1ccc(/C=C/c2ccccc2)cc1 (some centres undefined)
i,-3.7,0.8,-0.7,O=C(C[C@H]1C[C@@H]2c3cc(NC(=O)Nc4ccc(F)cc4)ccc3O[C@@H]2[C@H](CO)O1)NC1CCCCC1
i,5.9,1.8,1.5,COc1ccc(NC(=O)Nc2ccc3c(c2)CC(=O)N([C@@H](C)CO)C[C@@H](C)[C@H](CN(C)Cc2ccc(C(F)(F)F)cc2)O3)cc1
i,-1.4,2.6,-4.1,COCC#Cc1cnc2c(c1)C(=O)N([C@H](C)CO)C[C@@H](C)[C@H](CN(C)C(=O)C1CCCCC1)O2
i,-2.1,-9.9,4.4,COc1ccc(CNC(=O)C[C@H]2C[C@H]3c4cc(NC(=O)CC5CC5)ccc4O[C@H]3[C@@H](CO)O2)cc1
i,2.4,-5.4,-1.0,O=C(C[C@H]1CC[C@@H]2NC[C@@H](O)COC[C@H]2O1)NCCc1ccncc1
i,17.4,26.2,7.0,C[C@@H]1ON(C)[C@H]2C[C@H]3c4cc(N5CCCCC5)ccc4CCN3C[C@@H]12
i,3.7,8.1,0.4,C[C@@H]1CCCCO[C@@H](CN(C)S(=O)(=O)c2cccs2)[C@@H](C)CN([C@H](C)CO)C(=O)c2cc(NC(=O)Cc3ccccc3)ccc2O1
i,2.8,-0.6,-2.1,CC(C)C(=O)Nc1ccc2c(c1)C(=O)N(C)[C@H]1CC[C@H](CC(=O)NCCCN(C)C)O[C@@H]1CO2
i,-0.3,7.2,2.5,COc1ccc(CCC(=O)N2c3ccccc3N=C(c3ccc(C(F)(F)F)cc3)C2C(=O)NC2CCCC2)cc1 (centres undefined)
i,-1.5,-2.3,1.1,C[C@@H]1CN([C@@H](C)CO)C(=O)c2cc(NC(=O)CCC(F)(F)F)ccc2O[C@@H](C)CCCCO[C@@H]1CN(C)C(=O)Cc1ccccc1
i,0.2,-4.4,-2.6,C[C@@H]1CN([C@@H](C)CO)C(=O)c2cc(NS(=O)(=O)c3ccc(F)cc3)ccc2O[C@@H](C)CCCCO[C@@H]1CN(C)C(=O)Nc1ccc(F)cc1
i,10.8,19.5,-3.0,COc1cccc([C@@H](NC(=O)C(F)(F)F)[C@@H]2CCCC=C2c2ccccc2)c1
i,-11.8,-18.9,-1.1,CC(C(=O)NC(C)(C)C)n1c(C(c2ccccc2)c2ccccc2)nc2ccccc21 (centres undefined)
i,2.8,0.3,-0.1,CNC(=O)C[C@H]1CC[C@H]2[C@H](COc3ccc(NC(=O)NCc4ccccc4)cc3C(=O)N2C)O1
i,-1.7,4.7,-0.6,COc1ccc(NC(=O)N(C)C[C@H]2Oc3ccc(NS(=O)(=O)c4cccs4)cc3CC(=O)N([C@@H](C)CO)C[C@H]2C)cc1
i,0.9,1.2,-0.7,COc1ccc(S(=O)(=O)Nc2ccc3c(c2)CC(=O)N([C@H](C)CO)C[C@@H](C)[C@H](CN(C)S(=O)(=O)c2ccccc2)O3)cc1
i,-0.1,7.6,-1.4,CNC(=O)C[C@@H]1CC[C@@H]2[C@H](COc3ccc(NC(=O)c4ccc5c(c4)OCO5)cc3C(=O)N2C)O1
i,2.8,6.7,1.4,C[C@@H]1CCCCO[C@H](CN(C)Cc2ccc(C(F)(F)F)cc2)[C@@H](C)CN([C@H](C)CO)C(=O)c2cc(NC(=O)Nc3cccc4ccccc34)ccc2O1
i,7.9,15.9,0.2,COc1ccc2c3c([nH]c2c1)[C@@H](CO)N(C(=O)Nc1c(C)noc1C)CC31CCN(CC2CCCC2)CC1
i,-0.5,-0.9,1.3,COc1ccc(S(=O)(=O)N(C)C[C@H]2Oc3ccc(NS(=O)(=O)c4ccc(C)cc4)cc3CC(=O)N([C@H](C)CO)C[C@@H]2C)cc1
i,2.2,3.1,1.1,CNC(=O)C[C@H]1CC[C@@H]2[C@@H](COc3ccc(NC(=O)C(C)C)cc3C(=O)N2C)O1

An excerpt; the hit share may differ from the screen's.
